Ecoli rRNA inh: reduced GFP signal of wild-type E. coli, primary screen, bacterial rRNA inhibitor project, GFP/RFP fluorescence, OD600, single point; AID 720706, 2013; E. coli WT GFP vs humanized-ribosome RFP mutants, 24 h; stronger effect = lower value; DMSO median 0, no signal -100; hit rate 1.6% among 350,000; GFP signal change (wild-type ribosome), % (test concentration not listed);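 active = significant combined selectivity score with lowered wild-type GFP, culture density cut under 30%, mutant RFP and density less affected; inactive = any of these conditions unmet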; note: one replicate is shown; some compounds called inactive have numbers as strong as hits
FGF22 binding: binders of human FGF22 protein, primary screen, FGF22 synaptogenesis inhibitor project, biophysical, thermal shift, single point; Fibroblast growth factor 22 (Homo sapiens), Q9HCT0; recombinant FGF22 thermal shift, SYPRO orange fluorescence; percent of sucrose octasulfate shift, DMSO zero; calls only at 9.99 µM; hit rate 1.5% among 340,000; AID 651658, 2012;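 active = melting point raised past a set limit in the mean and every replicate; three in four hits are not shown here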
Target sequence (Q9HCT0 whole entry, looked up): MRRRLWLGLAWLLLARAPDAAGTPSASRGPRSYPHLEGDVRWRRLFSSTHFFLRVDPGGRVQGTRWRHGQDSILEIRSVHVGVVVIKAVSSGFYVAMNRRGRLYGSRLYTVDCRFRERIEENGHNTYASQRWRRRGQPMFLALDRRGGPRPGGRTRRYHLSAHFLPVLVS
A1 inh: caspase 3/7 activation in MEF A1-2A-BIM cells, primary screen, A1 inhibitor project, cell-based, luminescence, HTS; Caspase-Glo 3/7 luminescence, 3 h; percent of clofoctol response, vehicle zero; caspase activation, % (concentration not given with the values); hit rate 0.066% among 330,000;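 active = over half of replicate activation scores above 10%, or exactly half above 10 with the replicate mean above 10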;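 note: wells of about 30 µL received 50 nL stock; many hits fall short of the cut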
MLL AF4-AF9 inh: inhibitors of AF4 peptide binding to AF9, primary screen, biochemical, AlphaScreen, biotin-AF4 peptide, FLAG-AF9, single point. Protein AF-9 (Homo sapiens), P42568. inhibition, % at 10 µM. hit rate 0.47% among 350,000;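 active = every replicate reaching a set inhibition limit, whatever the replicate mean, cut at about 25% in these data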;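 note: 0% = plate neutral control median and 100% = total signal loss; the record names both 10 and 1 µM as test concentration; the first replicate is given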
Target sequence (P42568 whole entry, looked up): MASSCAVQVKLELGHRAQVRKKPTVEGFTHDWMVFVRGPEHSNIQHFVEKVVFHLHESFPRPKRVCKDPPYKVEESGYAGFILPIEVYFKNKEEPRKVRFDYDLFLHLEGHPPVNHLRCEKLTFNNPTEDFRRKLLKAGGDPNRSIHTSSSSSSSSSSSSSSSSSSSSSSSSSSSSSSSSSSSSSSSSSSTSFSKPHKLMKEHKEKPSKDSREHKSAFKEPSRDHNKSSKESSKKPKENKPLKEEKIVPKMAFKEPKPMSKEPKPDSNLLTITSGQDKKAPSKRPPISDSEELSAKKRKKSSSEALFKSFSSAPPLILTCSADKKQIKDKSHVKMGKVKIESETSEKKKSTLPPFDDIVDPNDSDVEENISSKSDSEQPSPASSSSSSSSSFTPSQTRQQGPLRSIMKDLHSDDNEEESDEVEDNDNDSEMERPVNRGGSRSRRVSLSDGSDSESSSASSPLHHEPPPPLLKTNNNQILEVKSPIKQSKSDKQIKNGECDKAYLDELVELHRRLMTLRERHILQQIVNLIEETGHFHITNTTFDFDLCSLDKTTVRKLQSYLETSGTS
Ecoli rRNA inh OD600: recorded beside Ecoli rRNA inh, whose call it bears; OD600 change, %; measured here: OD600 growth;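 optical density of the mix in the first replicate; 0 = DMSO median and -100 = no signal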
Ecoli rRNA inh RFP: second read-out of Ecoli rRNA inh, no call of its own (marks repeat the call); RFP signal change, %; measured here: RFP humanized mutant strains;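 first replicate; 0 = DMSO median and -100 = no signal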
* hit, by the source's call; i = inactive; . = not tested or not shown; & = joins results of further samples. These rows are one share of the data; the hit share may differ from the screen's.

The opening 2 records (preview)
structure	Ecoli rRNA inh	Ecoli rRNA inh OD600	Ecoli rRNA inh RFP	FGF22 binding	A1 inh	MLL AF4-AF9 inh
C[C@@H]1CCCCO[C@@H](CN(C)C(=O)Nc2cccc3ccccc23)[C@H](C)CN([C@@H](C)CO)C(=O)c2cc(NS(=O)(=O)c3ccc(F)cc3)ccc2O1	6	5	3.6	.	.	-1.4
COc1cccc(-c2ccc([C@H]3[C@H]4CN(C(=O)C5CCCCC5)CC(=O)N4[C@H]3CO)cc2)c1	4	-36	16	.	.	7.7

Results, previewed entries included:
structure	Ecoli rRNA inh	Ecoli rRNA inh OD600	Ecoli rRNA inh RFP	FGF22 binding	A1 inh	MLL AF4-AF9 inh
C[C@@H]1CCCCO[C@@H](CN(C)C(=O)Nc2cccc3ccccc23)[C@H](C)CN([C@@H](C)CO)C(=O)c2cc(NS(=O)(=O)c3ccc(F)cc3)ccc2O1	6	5	3.6	.	.	-1.4
COc1cccc(-c2ccc([C@H]3[C@H]4CN(C(=O)C5CCCCC5)CC(=O)N4[C@H]3CO)cc2)c1	4	-36	16	.	.	7.7
O=C(Nc1ccc(F)cc1)N1CC(=O)N2[C@H](CO)[C@@H](c3ccc(C#Cc4cccnc4)cc3)[C@@H]2C1	-3	-7	3.8	.	.	-2.0
O=C(c1ccccc1F)N1CC(=O)N2[C@H](C1)[C@H](c1ccc(C#Cc3ccc(F)cc3)cc1)[C@@H]2CO	-30	-57	9.4	.	.	-1.0
COc1ccc(S(=O)(=O)Nc2ccc3c(c2)C(=O)N([C@@H](C)CO)C[C@H](C)[C@@H](CN(C)S(=O)(=O)c2ccccc2)OCCCC[C@H](C)O3)cc1	-3	7	0.5	.	.	0.1
CO[C@H]1CN(C)C(=O)c2ccc(NC(=O)c3ccccc3)cc2OC[C@H](C)NC[C@@H]1C	2	0	-1.1	.	.	-6.6
O=S(=O)(Cc1ccccc1)NCC[C@@H]1CC[C@H](NS(=O)(=O)c2ccc(F)cc2)[C@H](CO)O1	0	-5	0.3	.	.	-1.1
N#Cc1ccc(-c2ccc(C3[C@@H]4CN(C(=O)c5ccc6c(c5)OCO6)C[C@H]3N4)cc2)cc1 (some centres undefined)	-1&-2	-23&-11	5.5&3.0	.	.	-5.0&1.9
O=C(C1CCC1)N1CC(=O)N2[C@H](C1)[C@@H](c1ccc(C#CCc3ccccc3)cc1)[C@@H]2CO	-54	-68	-3.7	.	.	-1.7
O=C(C[C@H]1CC[C@H](NC(=O)Nc2ccccc2F)[C@@H](CO)O1)NCc1ccc(F)cc1	-2	6	-2.8	.	.	-3.3
CC(C)CC#Cc1ccc([C@@H]2[C@@H](CO)N3C(=O)CN(C(=O)c4ccccn4)C[C@@H]23)cc1	2	0	-0.3	.	.	0.1
O=C1CN(Cc2ccc(F)cc2)C[C@H]2[C@@H](c3ccc(-c4ccccc4F)cc3)[C@@H](CO)N12	-34	-60	1.9	.	.	5.2
O=C(c1cccc(F)c1)N1CC[C@@H]2[C@@H](CO)Nc3ccc(-c4ccccc4)cc3[C@@H]21	-11	-59	15	.	.	31*
CC(C)NC(=O)Nc1ccc2c(c1)C(=O)N([C@@H](C)CO)C[C@@H](C)[C@H](CN(C)Cc1ccc(C(=O)O)cc1)O2	8	10	0.5	.	.	5.8
C[C@@H]1CN([C@@H](C)CO)C(=O)c2cc(C#Cc3cccnc3)cnc2O[C@@H]1CN(C)Cc1cccnc1	-3	7	-2.1	.	.	-4.0
O=C(Nc1ccccc1F)N1CC(=O)N2[C@@H](CO)[C@@H](c3ccc(C#CC4CC4)cc3)[C@@H]2C1	0	2	-0.1	.	.	-4.4
N#Cc1cccc(-c2ccc(C3[C@H]4CNC[C@@H]3N4Cc3cncnc3)cc2)c1 (some centres undefined)	4	12	3.9	.	.	-4.1
CC=Cc1ccc2n(c1=O)C[C@H]1[C@H](CO)[C@@H](C(=O)NC3CCCC3)[C@@H]2N1C(=O)c1cnccn1 (mixture of isomers)	2	5	-1.0	.	.	-3.7
C/C=C/c1ccc([C@H]2[C@H](CO)N3C(=O)CN(S(=O)(=O)c4cccc(F)c4)C[C@@H]23)cc1	2	4	-4.4	.	.	-0.1
C[C@H]1CCCCO[C@H](CN(C)CC2CCCCC2)[C@@H](C)CN([C@@H](C)CO)C(=O)c2cc(NS(C)(=O)=O)ccc2O1	2	-1	4.6	.	.	-0.6
Cc1ccc(S(=O)(=O)Nc2ccc3c(c2)C(=O)N([C@H](C)CO)C[C@H](C)[C@H](CN(C)C(=O)c2ccccc2)OCCCC[C@H](C)O3)cc1	0	-9	0.1	.	.	-2.5
COCCNC(=O)C[C@H]1CC[C@@H]2[C@H](COc3ccc(NS(=O)(=O)c4ccc(Cl)cc4)cc3C(=O)N2C)O1	-1	9	1.2	.	.	-0.7
CC(=O)N1CC(=O)N2[C@H](CO)[C@@H](c3ccc(-c4ccc(C(=O)N(C)C)cc4)cc3)[C@H]2C1	2	2	-1.9	.	.	-7.9
COC(=O)[C@@]12C[C@@H](CC(=O)NCC3CCCCC3)C(=O)N(Cc3cccc4ccccc34)C1=CCC(C)(C)C2	22	19	2.6	.	.	2.8
C/C=C/c1ccc([C@@H]2[C@@H](CO)N3C(=O)CN(Cc4ccccc4)C[C@H]23)cc1	5	5	-6.7	.	.	2.6
C/C=C/c1ccccc1[C@H]1[C@@H](C#N)N(c2nc(CC)cs2)[C@H]1CO	-7	-27	-4.5	.	.	3.7
O=C(C1CCC1)N1CCCCN2[C@H](CO)[C@@H](c3ccc(C#CC4(O)CCCC4)cc3)[C@@H]2C1	0	7	2.0	.	.	-4.9
O=C(C1CCC1)N1CC(=O)N2[C@@H](CO)[C@H](c3ccc(-c4cccnc4)cc3)[C@@H]2C1	3	9	-3.1	.	.	-2.1
CC(=O)NC[C@H]1[C@@H](c2ccc(-c3cccc(F)c3)cc2)[C@@H](CO)N1C(=O)C1CC1	-4	1	0.6	.	.	-0.7
C/C=C/c1ccc([C@H]2[C@@H](CO)N(C(=O)C3CC3)[C@@H]2CNC(=O)CN(C)C)cc1	4	0	0.3	.	.	1.0
O=C(c1ccc2c(c1)OCO2)N1CC2(C1)[C@H](c1ccccc1)[C@@H](CO)N2C(=O)C1CC1	1	5	-0.2	.	.	-0.7
O=C(C[C@H]1C=C[C@H](NC(=O)CN2CCOCC2)[C@@H](CO)O1)NCCc1ccncc1	4	6	-1.2	.	.	-3.5
CN(C)CC#Cc1ccc([C@@H]2[C@@H](CO)N3C(=O)CN(C(=O)Cc4ccccc4)C[C@H]23)cc1	1	6	-1.1	.	.	2.2
O=C(C1CCCCC1)N1CC(=O)N2[C@@H](CO)[C@H](c3ccc(Br)cc3)[C@@H]2C1	2	9	-3.1	.	.	-4.6
COc1cccc(C#Cc2ccc([C@H]3[C@@H](CO)N4C(=O)CN(C(=O)c5ccncc5)C[C@H]34)cc2)c1	1	7	-1.0	.	.	-1.8
O=C(Cc1ccccc1)N1CC(=O)N2[C@@H](CO)[C@H](c3ccc(-c4cccc(F)c4)cc3)[C@@H]2C1	1	-9	5.7	.	.	-3.4
Cc1ccc(CN2CC(=O)N3[C@H](CO)[C@@H](c4ccc(Br)cc4)[C@H]3C2)cc1	-2	-4	-1.1	.	.	1.3
O=C(C[C@@H]1C=C[C@@H](NC(=O)C2CC2)[C@@H](CO)O1)NCCc1cscn1	4	3	2.6	.	.	-7.7
COCC(=O)N1CCC2(CC1)CN(Cc1cccc(Cl)c1)[C@@H](CO)c1[nH]c3cc(OC)ccc3c12	5	6	-0.1	.	.	-4.1
CC(=O)N(C)C[C@H]1Oc2cc(-c3cccc(C#N)c3)ccc2S(=O)(=O)N([C@H](C)CO)C[C@@H]1C	-2	2	-3.9	.	.	1.1
CCCC(=O)N1CC2(C1)CN(S(=O)(=O)c1ccc(C)cc1)[C@@H](CO)c1[nH]c3cc(OC)ccc3c12	-3	0	-1.6	.	.	1.0
C[C@H]1CN([C@@H](C)CO)C(=O)c2c(c3ccccc3n2C)-c2ccccc2CO[C@H]1CN(C)C(=O)Nc1ccnc(N2CCOCC2)c1	-2	-11	5.8	.	.	1.5
CCC(=O)N1[C@@H]2c3cccc(=O)n3C[C@@H]2[C@@H](CO)[C@@H]1C(=O)N[C@@H](C)c1ccccc1	4	14	-1.9	.	.	-21
CCCN(C)C[C@H]1Oc2cc(C#CC(C)C)ccc2S(=O)(=O)N([C@H](C)CO)C[C@@H]1C	2	-3	2.3	.	.	6.2
O=C(C1CCCCC1)N1CC(=O)N2[C@@H](CO)[C@H](c3ccc(C#Cc4cccc(F)c4)cc3)[C@@H]2C1	-24	-55	32	.	.	-2.7
COc1ccc2c3c([nH]c2c1)[C@@H](CO)N(C(=O)NC(C)C)CC31CN(C(=O)c2ccccn2)C1	0	-4	-1.4	.	.	0.4
CCCNC(=O)N1C[C@H]2[C@@H](c3ccccc31)[C@@H](CO)N2C(=O)c1ccccc1	5	14	-2.7	.	.	1.1
O=C(Nc1ccc(F)cc1)N1CC(=O)N2[C@H](CO)[C@@H](c3ccc(C#Cc4ccc(F)cc4)cc3)[C@H]2C1	-10	-49	21	.	.	3.2
CCC(=O)NC[C@H]1[C@@H](c2ccc(-c3ccc(F)cc3)cc2)[C@@H](CO)N1C(=O)CC	-4	3	-0.8	.	.	-2.2
Cc1ccccc1S(=O)(=O)N1CC(=O)N2[C@H](CO)[C@@H](c3ccc(C#CCC4CCCC4)cc3)[C@H]2C1	5	-2	-1.5	.	.	-0.2

An excerpt from above, reduced to MLL AF4-AF9 inh and Ecoli rRNA inh RFP.
mol,MLL AF4-AF9 inh,Ecoli rRNA inh RFP
O=C(C[C@@H]1C=C[C@@H](NC(=O)C2CC2)[C@@H](CO)O1)NCCc1cscn1,-7.7,2.6
COCC(=O)N1CCC2(CC1)CN(Cc1cccc(Cl)c1)[C@@H](CO)c1[nH]c3cc(OC)ccc3c12,-4.1,-0.1
CC(=O)N(C)C[C@H]1Oc2cc(-c3cccc(C#N)c3)ccc2S(=O)(=O)N([C@H](C)CO)C[C@@H]1C,1.1,-3.9
CCCC(=O)N1CC2(C1)CN(S(=O)(=O)c1ccc(C)cc1)[C@@H](CO)c1[nH]c3cc(OC)ccc3c12,1.0,-1.6

Other entries
structure	Ecoli rRNA inh	Ecoli rRNA inh OD600	Ecoli rRNA inh RFP	FGF22 binding	A1 inh	MLL AF4-AF9 inh
COc1ccc(S(=O)(=O)Nc2ccc3c(c2)C(=O)N([C@@H](C)CO)C[C@@H](C)[C@@H](CN(C)S(=O)(=O)c2ccccc2)OCCCC[C@H](C)O3)cc1	0	-2	1.2	.	.	-1.4
COCC(=O)Nc1ccc2c(c1)OC[C@H](C)N(C(C)=O)C[C@@H](C)[C@@H](OC)CN(C)C2=O	1	4	0.1	.	.	-2.2
COCCNC(=O)C[C@@H]1C[C@@H]2c3cc(NC(=O)COC)ccc3O[C@@H]2[C@H](CO)O1	2	-1	-0.6	.	.	-3.2
COC(=O)[C@H]1[C@H](CO)[C@H]2Cn3c(ccc(-c4cccc(F)c4)c3=O)[C@H]2N1Cc1ccncc1	0	-12	5.0	.	.	-1.0
Cc1noc(C)c1NC(=O)Nc1ccc2c(c1)C(=O)N([C@H](C)CO)C[C@H](C)[C@@H](CN(C)S(=O)(=O)c1ccc(F)cc1)OCCCC[C@@H](C)O2	-1	6	0.4	.	.	-0.8
Cc1ccccc1-c1ccc([C@H]2[C@@H](CO)N3C(=O)CN(C(=O)c4ccc(F)cc4)C[C@@H]23)cc1	-28	-67	0.2	.	.	-3.0
CNC[C@H]1OCCCC[C@@H](C)Oc2ccc(NC(=O)NC3CCCCC3)cc2C(=O)N([C@H](C)CO)C[C@H]1C	4	3	2.0	.	.	-1.0
N#Cc1cccc(-c2ccc(C3[C@H]4CNC[C@@H]3N4S(=O)(=O)c3cccc(F)c3)cc2)c1 (some centres undefined)	-5&-43	-3&-57	11&-0.7	.	.	-6.7&-5.2
CO[C@H]1CN(C)C(=O)c2cc(NC(=O)NC3CCCCC3)ccc2OC[C@H](C)N(C)C[C@@H]1C	2	5	-0.1	.	.	0.6
O=NN(CCCl)C(=O)NCCc1cccc[n+]1[O-]	14	19	-2.1	.	.	2.3
CCN1[C@@H]2Cn3c(ccc(/C=C/c4ccccc4)c3=O)[C@H]1[C@@H](C(=O)NC1Cc3ccccc3C1)[C@@H]2CO	-5	-25	12	.	.	-72
C[C@H](NC(=O)[C@@H]1[C@@H](CO)[C@@H]2Cn3c(ccc(-c4cccc(F)c4)c3=O)[C@@H]2N1C)c1ccccc1	-5	-16	2.1	.	.	1.3
Cc1cccc(/C=N/n2c(-c3ccco3)n[nH]c2=S)c1	13	3	2.7	i	0.8	.

Bioassay records: PubChem BioAssay, Broad Institute
